Screening data from PubChem.
YB-1 expression = inhibitors of YB-1 gene expression, primary screen, cell-based, fluorescence. AID 434959, 2010. delta delta Cp (YB-1 minus CDIP) (no concentration beside the values). hit rate 0.37% among 30,000. U2OS, qRT-PCR YB-1 vs CDIP delta delta Cp, 16 h; stronger effect = higher value; zero = DMSO, each unit about twofold;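 active = delta delta Cp rounded down to an integer at or above 3, about 3 SD of DMSO wells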;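 also: higher means less YB-1 transcript or more CDIP transcript relative to DMSO; stock transfer was 100 nL into about 100 µL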
Hedgehog inh = Hedgehog pathway signaling inhibitors, primary screen, luminescence, Shh-LIGHT2 cells, Gli-luciferase. Shh-LIGHT2 Gli-luciferase reporter, 30 h. inhibition, % (test concentration not listed). hit rate 2.1% among 22,000. AID 2313, 2010;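 active = replicate mean of 65% or more; inconclusive = mean lower but half the replicates past it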;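 also: pathway switched on by Shh-conditioned medium diluted 1 in 25 in low serum; 100 nL library stock added to about 40 µL; 0% = median of neutral wells and 100% = positive control level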
PD-1 reverse act = activators reversing PD-1 mediated T-cell inhibition, primary screen, luminescence, primary human CD4 T cells, PD-L1 beads; AID 2316, 2010; activation, % (no concentration beside the values); 29,000 tested, under 10 active; CellTiter-Glo 96 h;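 active = replicate mean of 50% or more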;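 also: 0% = median vehicle wells and 100% = positive control; 100 nL library stock added to about 50 µL; numbers are from one replicate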
MITF inhib = inhibitors of MITF, primary screen, MITF inhibitor project, cell-based, luminescence. TRPM1 promoter luciferase, 24 h. inhibition, % (test concentration not listed). hit rate 0.28% among 37,000;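 active = most replicates at 85% or more, or half of them and the mean; inconclusive = half reach 85% but not the mean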;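 also: human melanocyte line stably carrying TRPM1 promoter luciferase reporter; 0% = vehicle wells and 100% = a positive control; the first replicate is given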
Numbers without * were called inactive; ? = inconclusive; / = not tested or not shown. Some of the compounds tested. The share of hits here may be higher or lower than overall.

SMILES	YB-1 expression	Hedgehog inh	PD-1 reverse act	MITF inhib
CCOC(=O)Cc1c(C)[nH]c(C(=O)OCC)c1CC(=O)OCC	-0.015	-30	0.7	-18
Cc1ccc(S(=O)(=O)N(C)C[C@@H]2Oc3ccc(NC(=O)c4ccncc4)cc3C(=O)N([C@@H](C)CO)C[C@@H]2C)cc1	-0.37	/	2.7	-13
Cc1cc(NC(=O)CN(c2cc(Cl)ccc2C)S(C)(=O)=O)ccc1Br	/	/	1.8	-1
C[C@H](CO)N1C[C@H](C)[C@H](CN(C)Cc2ccccc2)Oc2c(NC(=O)c3ccncc3)cccc2C1=O	-0.0056	8	-0.6	-2
O=C(O)CSc1n[nH]c(-c2cccs2)n1	-0.55	-19	4.0	-5
Cc1ccc(N(C(C)C(=O)Nc2ccccc2-c2ccccc2)S(C)(=O)=O)cc1 (stereo unspecified)	/	/	-0.8	-20
C[C@@H]1CN([C@H](C)CO)C(=O)c2cc(NC(=O)CCCCCC(=O)Nc3ccccc3N)ccc2O[C@H]1CN(C)Cc1ccc(-c2ccccc2)cc1	-0.18	/	0.6	0
C[C@H]1CN([C@@H](C)CO)C(=O)c2cc(NC(=O)Nc3ccccc3)ccc2O[C@@H]1CN(C)S(=O)(=O)c1ccccc1	-0.26	/	1.1	2
Cc1noc(C)c1NC(=O)N(C)C[C@@H]1Oc2ccc(NS(=O)(=O)c3ccccc3)cc2CC(=O)N([C@@H](C)CO)C[C@@H]1C	-0.099	-39	/	-21
CC(C)NC(=O)Nc1ccc2c(c1)CC(=O)N([C@H](C)CO)C[C@@H](C)[C@@H](CN(C)S(=O)(=O)c1cccs1)O2	-0.19	-5	-0.9	-17
C[C@@H]1CN([C@H](C)CO)C(=O)c2cc(NC(=O)Nc3ccc(F)cc3)ccc2O[C@@H]1CN(C)S(=O)(=O)c1ccc(F)cc1	0.16	-10	1.0	9
Cc1ccc(C(O)C(=O)c2ccccc2)o1 (stereo unspecified)	-0.19	5	1.2	-5
CC(C)NC(=O)N(C)C[C@H]1Oc2ccc(NC(=O)Nc3ccccc3)cc2C(=O)N([C@H](C)CO)C[C@H]1C	-0.14	-30	1.8	-1
COc1ccc(S(=O)(=O)N(C)C[C@H]2Oc3ccc(NC(=O)Nc4cccc5ccccc45)cc3C(=O)N([C@H](C)CO)C[C@@H]2C)cc1	0.21	-25	/	6
Cc1noc(C)c1NC(=O)N(C)C[C@@H]1Oc2ccc(NC(=O)NC3CCCCC3)cc2CC(=O)N([C@H](C)CO)C[C@@H]1C	-0.15	-5	/	-9
Cc1noc(C)c1NC(=O)N(C)C[C@@H]1Oc2c(NC(=O)C3CCCCC3)cccc2C(=O)N([C@H](C)CO)C[C@H]1C	-0.24	-33	/	-1
O=c1oc2ccccc2cc1-c1csc(Cc2nc(-c3ccc(Br)cc3)cs2)n1	/	/	0.8	65
CCC1(C)Cc2nc3nc(SCC(=O)c4ccc(Br)cc4)n(-c4ccccc4)c(=O)c3cc2CO1 (stereo unspecified)	/	/	-2.7	-5
C[C@H](CO)N1C[C@H](C)[C@H](CN(C)C(=O)Nc2ccc(F)cc2)Oc2ccc(NC(=O)Cc3cn(C)c4ccccc34)cc2CC1=O	-0.23	-23	0.5	-3
COc1cc2ccc(=O)oc2cc1OC	0.74	-1	0.5	-10
COc1ccc(CN(C)C[C@H]2Oc3ccc(NS(=O)(=O)c4ccc(F)cc4)cc3C(=O)N([C@@H](C)CO)C[C@H]2C)cc1	0.17	41	-0.3	-5
O=C(CSc1nnc(-c2cccc([N+](=O)[O-])c2)n1-c1ccccc1)Nc1ccc(F)cc1	/	/	-1.6	-35
Cc1coc(C)c1C(=O)CC1(O)C(=O)N(CCc2ccccc2)c2ccccc21 (stereo unspecified)	/	/	-3.4	22
C[C@H]1CN([C@@H](C)CO)C(=O)Cc2cc(NC(=O)c3ccncc3)ccc2O[C@H]1CN(C)CC1CCCCC1	-0.15	?	0.7	-10
Cc1ccc(NC(=O)CCCn2cc([N+](=O)[O-])cn2)cc1Cl	/	/	-1.6	4
COC(=O)c1cc(OC)c(OC)cc1NC(=O)C(C)Oc1ccc(OC)cc1 (stereo unspecified)	/	/	-1.2	54
Cc1ccccc1-c1nnc(SCC(=O)Nc2ccc(C(C)C)cc2)n1C	/	/	-3.0	28
C[C@@H]1CN([C@H](C)CO)C(=O)c2cccc(NS(=O)(=O)c3cccs3)c2O[C@H]1CN(C)CC1CCCCC1	0.17	-5	2.0	-7
CC(C)NC(=O)Nc1ccc2c(c1)C(=O)N([C@H](C)CO)C[C@H](C)[C@H](CN(C)C(=O)CCCN(C)C)OCCCC[C@@H](C)O2	0.18	3	1.4	5
C[C@H]1CN([C@@H](C)CO)C(=O)c2cc(NC(=O)CCCN(C)C)ccc2O[C@@H]1CN(C)S(=O)(=O)c1ccc(Cl)cc1	-0.15	/	-1.9	5
CCc1cccc(CC)c1NC(=O)Cn1cnc2ccccc2c1=O	/	/	0.5	8
C[C@@H]1CN([C@H](C)CO)C(=O)c2cc(N(C)C)ccc2O[C@H]1CN(C)Cc1ccc(C(F)(F)F)cc1	-0.48	-31	-0.2	8
C[C@@H]1CN([C@@H](C)CO)C(=O)Cc2cc(NS(=O)(=O)c3cn(C)cn3)ccc2O[C@@H]1CN(C)S(=O)(=O)c1cccs1	0.13	-12	0.8	-7
COc1ccccc1NC(=O)CNC(=O)c1ccc(F)cc1	/	/	1.0	-17
C[C@@H]1CN([C@H](C)CO)C(=O)c2cccc(NC(=O)c3nc4ccccc4s3)c2O[C@@H]1CN(C)Cc1ccc2c(c1)OCO2	-0.4	39	-0.9	-11
COc1ccc(CN(C)C[C@H]2OCCCC[C@@H](C)Oc3ccc(NC(=O)Nc4ccc5c(c4)OCO5)cc3C(=O)N([C@H](C)CO)C[C@@H]2C)cc1	0.43	6	/	-4
Cn1c(SCCC(=O)O)nnc1-c1ccncc1	/	/	0.7	-5
C[C@@H]1CCCCO[C@@H](CN(C)S(=O)(=O)c2cccs2)[C@@H](C)CN([C@H](C)CO)C(=O)c2cc(NC(=O)CCC(F)(F)F)ccc2O1	0.26	-10	-0.6	-1
C[C@@H]1CN([C@@H](C)CO)C(=O)c2cc(NC(=O)Cc3cn(C)c4ccccc34)ccc2O[C@H]1CN(C)S(=O)(=O)c1cn(C)cn1	-0.059	/	/	3
COc1ccccc1Nc1nc(N)nc(CN2CCOCC2)n1	/	/	3.7	5
C[C@H]1CN([C@@H](C)CO)C(=O)c2cc(NS(=O)(=O)c3cccs3)ccc2O[C@@H]1CN(C)CC1CCCCC1	0.18	/	2.9	-4
C[C@@H]1CN([C@@H](C)CO)C(=O)Cc2cc(NC(=O)Cc3cn(C)c4ccccc34)ccc2O[C@@H]1CN(C)Cc1ccc(Oc2ccccc2)cc1	-0.059	-3	-5.0	16
C[C@@H]1CN([C@H](C)CO)C(=O)c2cc(NS(=O)(=O)c3cn(C)cn3)ccc2O[C@@H]1CN(C)Cc1ccccc1	-0.013	-20	0.6	0
C[C@H]1CN([C@@H](C)CO)C(=O)c2cccc(NS(C)(=O)=O)c2O[C@H]1CN(C)C(=O)Nc1ccc(C(F)(F)F)cc1	0.02	-50	0.5	-6
O=C(O)C1CCCN1C(=O)OCC1c2ccccc2-c2ccccc21 (stereo unspecified)	-0.2	-39	-0.2	-8
COc1ccc(S(=O)(=O)NCC2CCCO2)cc1-c1nnc2c3ccccc3c(C)nn12 (stereo unspecified)	/	/	-0.5	-11
CC1(C)CC(=O)C2=C(C1)N(Cc1cccnc1)C(=O)C2(NC(=O)c1cccs1)C(F)(F)F (stereo unspecified)	/	/	1.4	-8
COc1ccc(S(=O)(=O)Nc2ccc3c(c2)C(=O)N([C@H](C)CO)C[C@H](C)[C@@H](CN(C)C(=O)Nc2ccc(F)cc2)O3)cc1	-0.008	22	0.4	-8
CS(=O)(=O)N(CC(=O)Nc1cccnc1)c1cccc(F)c1	/	/	0.5	-2
C[C@@H]1CN([C@H](C)CO)C(=O)Cc2cc(NC(=O)Nc3ccc4c(c3)OCO4)ccc2O[C@H]1CN(C)C(=O)NC1CCCCC1	0.073	33	-0.1	-7
C[C@@H]1CN([C@@H](C)CO)C(=O)c2cccc(N(C)C)c2O[C@@H]1CN(C)S(=O)(=O)c1cccs1	-0.65	39	-0.6	-1
Cc1ccc(S(=O)(=O)N(C)C[C@H]2Oc3ccc(NS(=O)(=O)c4cccs4)cc3C(=O)N([C@@H](C)CO)C[C@@H]2C)cc1	0.27	-15	0.6	-7
Cc1cc(C)cc(NC(=O)c2ccc(NS(=O)(=O)c3cccc4cccnc34)cc2)c1	/	/	2.9	38
Cc1noc(C)c1S(=O)(=O)N(C)C[C@@H]1Oc2ccc(NC(=O)Nc3ccc4c(c3)OCO4)cc2CC(=O)N([C@@H](C)CO)C[C@@H]1C	-0.0093	-6	/	0
OC(c1ccccc1)c1nc2ccccc2n1CCOc1ccccc1 (stereo unspecified)	/	/	0.2	21
COc1ccc(NC(=O)N(C)C[C@@H]2Oc3ccc(NS(=O)(=O)c4ccc(F)cc4)cc3C(=O)N([C@@H](C)CO)C[C@@H]2C)cc1	0.17	24	1.5	-11
C[C@]12CCC3c4ccc(OC(=O)c5ccccc5)cc4CCC3C1CCC2=O (stereo partly specified)	-0.24	35	/	1
O=C1CCC(c2ccccc2)C(=O)C1C(=O)c1ccc(Cl)cc1Cl (stereo unspecified)	-0.0029	-2	-0.6	34
Cc1noc(C)c1NC(=O)N(C)C[C@H]1Oc2ccc(NC(=O)Nc3ccc4c(c3)OCO4)cc2C(=O)N([C@@H](C)CO)C[C@@H]1C	0.06	-40	/	-3
Cc1noc(C)c1S(=O)(=O)Nc1cccc2c1O[C@H](CN(C)S(=O)(=O)c1ccc(Cl)cc1)[C@H](C)CN([C@@H](C)CO)C2=O	-0.21	-58	/	15

Entries above containing a COOH group, in the order listed:
SMILES	YB-1 expression	Hedgehog inh	PD-1 reverse act	MITF inhib
O=C(O)CSc1n[nH]c(-c2cccs2)n1	-0.55	-19	4.0	-5
Cn1c(SCCC(=O)O)nnc1-c1ccncc1	/	/	0.7	-5
O=C(O)C1CCCN1C(=O)OCC1c2ccccc2-c2ccccc21 (stereo unspecified)	-0.2	-39	-0.2	-8

The results go on:
SMILES	YB-1 expression	Hedgehog inh	PD-1 reverse act	MITF inhib
Cc1noc(C)c1NC(=O)N(C)C[C@H]1Oc2ccc(NC(=O)Nc3ccc(C(F)(F)F)cc3)cc2CC(=O)N([C@@H](C)CO)C[C@@H]1C	-0.95	-2	-0.3	4
Cc1ccc([N+](=O)[O-])cc1NC(=O)CCN1C(=O)c2ccccc2C1=O	/	/	3.7	-20
CCn1c(SCC(=O)Nc2cccc(C(C)=O)c2)nnc1-c1ccncc1	/	/	0.6	-6
O=C(Nc1ccccc1)C(c1ccccc1)c1ccccc1	-0.54	7	-0.8	-6
CC(=O)NC1C(OCCOc2ccc(Cl)cc2C)OC(CO)C(O)C1O (stereo unspecified)	-0.39	/	0.5	3
C[C@@H]1CN([C@@H](C)CO)C(=O)c2cc(NC(=O)Nc3ccc4c(c3)OCO4)ccc2O[C@H]1CN(C)Cc1ccncc1	0.16	/	2.0	5
C[C@H]1CN([C@@H](C)CO)C(=O)c2cc(NC(=O)Cc3ccccc3)ccc2O[C@H]1CN(C)C	-0.37	/	3.1	1
COc1ccc(NC(=O)Nc2ccc3c(c2)C(=O)N([C@H](C)CO)C[C@H](C)[C@@H](CN(C)S(=O)(=O)c2cccs2)O3)cc1	-0.19	-5	/	-14
C[C@H]1CN([C@@H](C)CO)C(=O)c2cccc(NC(=O)C3CCOCC3)c2O[C@H]1CN(C)CC1CCCCC1	0.15	-23	0.2	-1
C[C@H]1CN([C@@H](C)CO)C(=O)c2cc(NC(=O)CCC(F)(F)F)ccc2O[C@H]1CN(C)C(=O)NC1CCCCC1	0.39	-7	-1.2	-1
Cc1sc2nc(SCc3nc4ccccc4[nH]3)n(-c3ccccc3)c(=O)c2c1C	/	/	-5.1	22
Cc1ccc(S(=O)(=O)N(C)C[C@H]2Oc3ccc(NC(=O)Nc4c(C)noc4C)cc3CC(=O)N([C@@H](C)CO)C[C@H]2C)cc1	9.8*	-13	-2.1	8

Complete entries, quoted from the list:
CCn1c(SCC(=O)Nc2cccc(C(C)=O)c2)nnc1-c1ccncc1 across the screens: YB-1 expression = /; Hedgehog inh = /; PD-1 reverse act = 0.6; MITF inhib = -6
Cc1ccc([N+](=O)[O-])cc1NC(=O)CCN1C(=O)c2ccccc2C1=O across the screens: YB-1 expression = /; Hedgehog inh = /; PD-1 reverse act = 3.7; MITF inhib = -20
